Source: PubChem
TRPML1 agonist: human mucolipin-1 channel agonism; Q9GZU1; TRPML1-expressing cells, Ca2+ dye fluorescence, FDSS; host cell line not named in the record; reference of the full effect not given here; activation, % (concentration not given with the values); 0.12% of 410,000 active; in the data active = activation above about 50%; inconclusive = about 30% to 50%; inactive = below about 30%; also: 0% is about no effect; the text of the record puts the active cut at 80%
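In this qHTS format, compounds were pin-transferred onto Ca8-dye-loaded TRPML1-DL cells induced with Tet overnight, and intracellular Ca2+ fluorescence was recorded kinetically for 110 s after a 10 s baseline. A subsequent 4uM final 54-4 (EC80) addition followed by a second 110 s read served as the antagonist phase.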
Six1-Eya2 blk: inhibitors of human Six1/Eya2 interaction | Q15475+O00167 | AlphaScreen GST-Six1/His-Eya2 binding, biochemical; stronger effect = lower value; control for the full effect not named in the record | activity change, % (test concentration not listed) | 0.56% of 360,000 active | AID 651725; in the data active = activity change below about -65%; inconclusive = about -30% to -65%; inactive = above about -30%; also: % is scaled to controls: 0 for no effect and ±100 for the full control effect; compound concentration not given in the record
Target sequence (O00167 whole entry, looked up): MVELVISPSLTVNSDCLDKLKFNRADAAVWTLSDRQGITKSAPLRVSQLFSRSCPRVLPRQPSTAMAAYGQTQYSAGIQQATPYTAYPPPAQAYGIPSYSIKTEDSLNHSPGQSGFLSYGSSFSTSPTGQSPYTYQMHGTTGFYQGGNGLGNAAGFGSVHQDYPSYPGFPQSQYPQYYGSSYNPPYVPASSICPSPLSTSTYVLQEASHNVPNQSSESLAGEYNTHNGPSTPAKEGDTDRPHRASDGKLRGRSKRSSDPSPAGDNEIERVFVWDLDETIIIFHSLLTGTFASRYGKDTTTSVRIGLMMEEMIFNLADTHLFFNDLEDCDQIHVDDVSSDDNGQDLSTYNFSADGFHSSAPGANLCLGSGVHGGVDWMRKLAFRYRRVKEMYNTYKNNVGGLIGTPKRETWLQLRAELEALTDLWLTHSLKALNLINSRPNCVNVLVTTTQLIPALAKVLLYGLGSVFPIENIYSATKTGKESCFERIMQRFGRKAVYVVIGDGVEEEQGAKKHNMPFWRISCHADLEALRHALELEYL
Target sequence (Q15475 whole entry, looked up): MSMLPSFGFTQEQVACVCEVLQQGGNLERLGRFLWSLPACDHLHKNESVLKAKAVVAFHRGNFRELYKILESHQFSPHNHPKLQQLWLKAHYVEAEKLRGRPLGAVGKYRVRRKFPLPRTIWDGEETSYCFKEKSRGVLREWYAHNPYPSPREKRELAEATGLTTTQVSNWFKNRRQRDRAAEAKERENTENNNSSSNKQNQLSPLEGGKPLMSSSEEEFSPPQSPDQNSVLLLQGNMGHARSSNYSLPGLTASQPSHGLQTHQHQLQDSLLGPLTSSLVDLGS
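Compounds are tested against tagged Six1 and Eya2 proteins bridged by glutathione donor and nickel acceptor beads; after a one-hour incubation at 37 °C without light, AlphaScreen emission is recorded.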
PINK1 modulator: PINK1 expression modulation; 0.2% of 410,000 active; Potency, µM (highest dose often 76.6 µM), for inactives: at the highest dose activation (PINK1 increase), hits mostly activators; PINK1 immunofluorescence, high-content cytometry, 24 h; AID 624263; active = well fitted activation curve with a large enough effect; inconclusive = small, poorly fitted or top-dose-only effect; inactive = flat fitted curve, though single readings scatter; cell line not stated here;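 also: potency is read from the fitted curve at half-maximal effect; % of control where 0% means no effect; nearly all actives have a fitted effect of over 65% in size; a mitochondrial uncoupler was the plate control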
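A stable cell line was treated with compounds at 5 concentrations for 24 hours, with CCCP as control. PINK1 levels and mitochondrial localization were measured by immunofluorescence with mitochondrial, cell and nuclear markers after fixation, read by laser-scanning cytometry.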
D2 ag: activates the human D2 dopamine receptor; DiscoveRx PathHunter D2 beta-arrestin, luminescence, 90 min; 100% = 57 uM dopamine signal; activation, % (concentration not given with the values); 0.084% of 360,000 active; AID 624465; in the data active = activation above about 40%; inconclusive = about 15% to 40%; inactive = below about 15%; also: compound concentration not given in the record; the text of the record calls up to 30% inactive
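Agonist mode: compounds alone added to overnight-plated D2 PathHunter cells for 90 min at 37 C, with 57 uM final dopamine (EC100) defining full response. Beta-arrestin recruitment detected by chemiluminescent reagent, read after 1 h at ambient temperature.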
CtBP-E1A inh: blocks the CtBP interaction with E1A | activity change, % (concentration not given with the values) | AlphaScreen GST-E1A/His-CtBP binding, 1536-well; stronger effect = lower value; control for the full effect not named in the record | AID 651724 | 0.49% of 340,000 active; in the data active means activity change below about -65%; inconclusive means about -30% to -65%; inactive means above about -30%; also: % is scaled to controls: 0 for no effect and ±100 for the full control effect
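Steps: dispense buffer (Tris pH 8.0, NaCl 300 mM, TCEP 1 mM, BSA, Tween 20); add 5X protein mix (GST-E1A, His-CtBP, 125 nM each); pin 23 nL compound; 2 h at 37 °C, dark; add 5X beads (50 ug/mL); 1 h; read.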
TRPML1 blocker: human mucolipin-1 channel inhibition; AID 624415; TRPML1-inducible cells, Ca2+ dye fluorescence, FDSS; stronger effect = lower value; inhibition of EC80 agonist-evoked calcium signal; activity change, negative = inhibition, % (concentration not given with the values); 0.02% of 390,000 active; Q9GZU1; in the data active means activity change below about -50%; inconclusive means about -30% to -50%; inactive means above about -30%;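 also: stimulus is agonist 54-4 at its EC80 concentration; % is scaled to controls: 0 for no effect and ±100 for the full control effect; compound concentration not given in the record; the text of the record puts the active cut at -80%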
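TRPML1-DL cells, Tet-induced overnight (~16 h, 37 °C) at 1,500 cells/well, were loaded with Ca8 no-wash dye plus quencher for 45-90 min at room temperature. Compounds were pinned during FDSS kinetic reading; agonist 54-4 at EC80 (4 uM final) then added.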
* hit, by the source's call; ? = inconclusive; / = not tested or not shown; & = joins results of further samples; [ ] = another dose, or the depositor's remark.

SMILES	TRPML1 agonist	Six1-Eya2 blk	PINK1 modulator	D2 ag	CtBP-E1A inh	TRPML1 blocker
Cc1nc2c(-c3ccccc3)c(C)nn2c(C)c1CCC(=O)N1CCOCC1	1.8	-1	-1.5%	-0.4	-1	1
CC(C)Cn1c(N)c(C(=O)COC(=O)c2cc(C(F)(F)F)nc3ccccc23)c(=O)n(C)c1=O	-0.2	2	-0.3%	-2.7	1	1
CCN(CC)S(=O)(=O)c1cccc(NC(=O)COC(=O)C2COc3ccccc3O2)c1 (stereo not given)	-0.7	3	0.2%	1.0	-3	5
CC1(C)C2([N+](=O)[O-])CN3CC1([N+](=O)[O-])CN(C2)C31CCCC1	0.7	0	8.4%[38.3 µM]	-3.8	8	4
CCOC(=O)N=Nc1c(O)n(CC)c2ccccc12	-0.7	-15	0.4%	-5.3	-6	37
COc1ccc(OC)c(S(=O)(=O)N2CCN(C(=O)c3ccco3)CC2)c1	-0.3	7	-0.1%	11	0	-4
O=C1[C@H]2[C@@H](c3ccc(Cl)cc3)N3C(=O)N(c4cccc(Br)c4)C(=O)[C@@]3(Cc3ccc(Cl)cc3)[C@H]2C(=O)N1C1CCCCC1	0.6	-20	1.1%	-1.9	-4	-16
CC(=O)Nc1ccccc1C(=O)N1CCc2ccccc21	-0.1	15	-4.1%	0.3	-1	-19
CC(=O)OCC(OC(C)=O)C(OC(C)=O)C(OC(C)=O)C(=O)Nc1ccccc1C (stereo not given)	0.5	9	-4.0%	0.2	-4	21
CCCOc1ccc(-c2nc(C#N)c(N3CCc4ccccc4C3)o2)cc1	0.1	1	2.3%[38.3 µM]	-1.2	3	-2
Cn1nc(C(C)(C)C)cc1NC(=O)C1(C)CCN1C(=O)CCc1ccccc1 (stereo not given)	-0.7	8	2.5%	-5.9	-6	/
c1ccc2c(c1)nc(CN1CCOCC1)n1c3ccccc3nc21	-1.5	-23	1.9%	-2.2	-10	-9
COc1ccc(NC(=O)Nc2ccc3c(c2)C(=O)N([C@@H](C)CO)C[C@@H](C)[C@@H](CN(C)CC2CCCCC2)O3)cc1	-0.3	-8	0.9%	-1.7	0	-2
CCOC(=O)c1cc(NC(=O)c2ccoc2C)cc(C(=O)OCC)c1	3.5	-1	?	6.6	1	26
O=C(CSC(=S)N1CCCCC1)Nc1nc(-c2ccccc2)c(-c2ccccc2)o1	-0.2	4	-0.1%[38.3 µM]	-0.7	-2	3
Cc1ccc(NC(=O)CN2C(=O)COc3ccc(S(=O)(=O)N4CCOCC4)cc32)cc1N(C)C	1.2&1.9	1	3.0%&-0.6%	-12	-3	11&-26
CCN(CC)CCOC(=O)c1ccc(N/C=C(/C#N)c2nc(-c3ccc(OC)cc3)cs2)cc1	-0.2	-3	-1.9%	-5.2	-4	5
Nc1nnc(CCCCCCCCCCc2nnc(N)s2)s1	1.0	-1	1.5%	-2.8	8	16
Cc1ccc(NC(=O)CCc2nc(-c3ccccc3F)no2)c(C)c1	-0.9	/	3.4%	/	/	-1
CCN(CC)S(=O)(=O)c1cccc(NC(=O)C2CC(=O)N(c3ccc4c(c3)OCCO4)C2)c1 (stereo not given)	1.3	-2	0.7%	6.4	-4	5
CCN(CC)c1ccc(S(=O)(=O)N2CCOCC2)cc1NC(=O)CN1CCc2ccccc2C1	16	-16	5.0%	-7.2	-9	1
O=C(N/N=C\c1ccc(OC(=O)c2cccs2)cc1)c1ccc(Cl)cc1	-0.4	-2	9.5%	-3.4	-17	7
CN1[C@@H](CC(=O)c2ccccc2)CCC[C@H]1C[C@H](O)c1ccccc1	0.4&-0.1	3	0.6%&7.7%	-4.2	9	6
COc1ccc(-c2cccc(-c3cc(=O)oc4cc(OC)c(OC)c(OC)c34)c2)cc1	0.8	-2	6.1%	-0.4	-8	13
COc1cc(NC(=O)C2CCCO2)c(OC)cc1Cl (stereo not given)	0.1	5	0.1%	1.8	13	16
COc1ccc(-c2nnc(NC(=O)c3ccccc3[N+](=O)[O-])s2)c(OC)c1	-0.3	2	2.8%	-3.9	4	-2
CCN1C(=O)C(O)(CC(=O)c2ccc(-n3cccc3)cc2)c2ccccc21 (stereo not given)	-0.5	-11	-2.0%	-4.2	-3	-11
COc1cc(NC(=O)CN(C)Cc2ccc(OC(F)F)cc2)c(C)cc1[N+](=O)[O-]	0.2	5	1.2%	-2.2	10	-4
COc1ccc(C)cc1NC(=O)c1ccc(OC(F)F)cc1	0.1	3	-1.0%	-3.5	7	6
CCc1ccccc1Nc1nc2ccccc2n1C	-0.5	6	2.0%	-2.2	3	-5
O=C(Nc1nc2ccccc2s1)c1ccc2c(c1)OCO2	0.3	-3	7.4%	-1.8	-2	-14
Nc1nonc1-n1nnc(C(=O)N/N=C/c2ccccc2)c1CSc1ccccc1	-0.1	-2	8.1%	-0.2	-1	-17
CC(C)(C)C(=O)COC(=O)CCc1nc2ccccc2[nH]c1=O	0.9	-2	2.4%	3.3	-3	20
CCn1nc(C)cc1C(=O)N1CCCC(N2CCN(c3ccccc3OC)CC2)C1 (stereo not given)	-0.4	0	-1.5%	4.3	0	-22
O=C(CSc1cccc[n+]1[O-])Nc1ccc2c(c1)OCO2	-0.2	-1	1.3%	0.3	7	0
CCCc1cc(C(=O)Cc2nc3ccccc3s2)c(O)cc1O	0.7	3	-0.5%	3.8	-2	15
COc1cccc(CNC(=O)CCNS(=O)(=O)c2ccc3c(c2)CCCC(=O)N3)c1	1.1	/	-1.5%	/	/	12
O=C(Nc1ccccc1)c1cc(C2CCCCN2S(=O)(=O)c2ccccc2)on1 (stereo not given)	-0.5	0	-0.7%	-4.2	0	/
O=C(Cn1cnc2c(OCc3ccccc3)ncnc21)NCc1ccccc1	-0.2	1	?	-0.7	2	-18
CCCC(C)NC(=O)CN1C(=O)NC2(CCc3ccccc32)C1=O (stereo not given)	0.2	-1	-0.3%	0.1	12	26
Cc1nc2cc(-c3cccs3)[nH]n2c(=O)c1C	-0.7	-15	11%	-3.0	0	12
COc1ccccc1C(C)NCC(=O)NCC(=O)Nc1ccc(F)c(F)c1F (stereo not given)	-0.7	-9	-0.3%	-0.4	3	-10
CCOc1ccc(/C=C/c2[nH]c(=O)[nH]c(=O)c2[N+](=O)[O-])cc1	0.4	4	-0.1%	-5.9	-5	5
CCCCCN(C(=O)NC(=O)Nc1ccccc1C)S(C)(=O)=O	0.9	2	/	-0.7	6	-14
CCC(=O)N1CCc2cc(S(=O)(=O)CCC(=O)N3CCc4ccccc4C3)ccc21	-0.8	10	-0.8%	2.6	-1	13
Cc1ccc(F)cc1CNC(=O)C1CCC(=O)N(CCCN2CCCC2=O)C1 (stereo not given)	1.1	3	2.0%	-2.2	-3	-3
Cc1cc(C(=O)N2CCCC(Nc3ccc(F)cc3)C2)c(C)o1 (stereo not given)	0.1	-15	-1.6%	-2.4	-1	-8
COc1ccc(Cl)cc1NC(=O)COc1cccc2c(=O)n(C)ccc12	0.2	/	-1.0%	/	/	-13
CC(=O)N1CCN(C(=O)CCC(=O)O)CC1	0.4	0	0.0%	-4.5	-10	-3
O=C(CS(=O)(=O)Cc1ccccc1)N1CCN(c2cccc(C(F)(F)F)c2)CC1	5.6	-1	-2.1%	-0.4	0	1
C=CCn1c(SCC(=O)Nc2cccc(OC)c2)nnc1-c1cccnc1	1.1	-3	1.8%	0.6	3	16
CSc1ccc(CCNS(=O)(=O)c2c(C)[nH]c(C)c2C(=O)N2CCCCC2)cc1	-0.3	-1	0.1%	3.7	1	23
O=S(=O)(Nc1cccc(F)c1)c1ccc2[nH]c3c(c2c1)CCCCC3	-0.3	/	12%	/	/	2
Cc1ccc(-n2cc(-c3ccccc3)c3c(N4CCOCC4)ncnc32)cc1	2.0	-8	-2.3%	?	3	23
Cc1nnc(SCC(=O)NC(=O)NC2CCCC2)n1N	-0.9	5	1.2%	-0.6	-3	5
CCC1C(c2ccccc2)N(C)C(c2ccccc2)CC1(O)c1ccccc1 (stereo not given)	0.4	-4	0.4%	8.4	0	0
Cc1ccc(NC(=O)CN(C)C(=O)CSc2nc3ccccc3c(=O)n2CCO)cc1	0.5	-2	3.8%	-2.5	0	11
COC(=O)[C@@H](Cc1ccccc1)NC(=O)Cn1cnc2c(SC)nc(N)nc21	-0.6	1	0.6%	-1.0	9	-7
Cc1cccc(C)c1NC(=O)CCSCCc1ccccn1	-0.3	/	-1.5%	/	/	-1
COc1ccccc1C(=O)Oc1cc(N)n(S(=O)(=O)c2ccc(C)cc2)n1	2.3	2	3.9%	-2.7	-3	23

Compounds above that contain two or more sulfur atoms:
SMILES	TRPML1 agonist	Six1-Eya2 blk	PINK1 modulator	D2 ag	CtBP-E1A inh	TRPML1 blocker
O=C(CSC(=S)N1CCCCC1)Nc1nc(-c2ccccc2)c(-c2ccccc2)o1	-0.2	4	-0.1%[38.3 µM]	-0.7	-2	3
Nc1nnc(CCCCCCCCCCc2nnc(N)s2)s1	1.0	-1	1.5%	-2.8	8	16
CSc1ccc(CCNS(=O)(=O)c2c(C)[nH]c(C)c2C(=O)N2CCCCC2)cc1	-0.3	-1	0.1%	3.7	1	23

Later entries.
SMILES	TRPML1 agonist	Six1-Eya2 blk	PINK1 modulator	D2 ag	CtBP-E1A inh	TRPML1 blocker
Cc1ccc(C)n1-c1nnc(N2CCC(C(=O)NCc3ccccc3Cl)CC2)s1	-0.3	/	1.0%	/	/	5
CC1CCN(CC(=O)Nc2ccccc2C(=O)NC2CC2)CC1	-0.5	0	2.1%	-0.1	10	0
COc1ccc(/C=N/n2c(N)nc(-c3ccccc3)c2-c2ccccc2)cc1	2.5	0	9.8%	6.0	-15	-8
COc1ccccc1NS(=O)(=O)c1cccc(NC(=O)C2CC(=O)N(Cc3ccccc3)C2)c1 (stereo not given)	2.5	8	-0.2%	-2.7	1	-18
O=C(CSCc1ccccc1)NCCCN1CCOCC1	0.0	-2	0.2%	1.9	0	3
Cc1ccccc1CNC(=O)CCCn1ncn2c(cc3occc32)c1=O	-1.2&-0.9	-2	0.5%&-0.4%	-1.7	0	-5&1
O=C(c1ccc2c3c(cccc13)CC2)N1CCN(c2ncccn2)CC1	4.5	-3	-1.4%[38.3 µM]	-0.4	-10	8
COCCNc1nc(N)c([N+](=O)[O-])c(NC2CCCCC2)n1	3.4	-5	0.7%	-4.9	-27	2
COc1ccc(C2C(=O)N(C3CCCCCC3)CC(=O)N2CCc2ccccc2)cc1 (stereo not given)	-0.7	/	-0.3%	/	/	-10
O=C(CSc1nc(O)cc(=O)n1-c1ccccc1)N1CCCCC1	0.5	1	19%[38.3 µM]	2.3	7	13
COc1ccc(CCNC(=O)CN2C(=O)CSc3ccc(S(=O)(=O)N4CCOCC4)cc32)cc1OC	1.7	2	1.8%	-2.6	/	18
CCc1cc(C(=O)NCc2ccccc2)no1	-1.0	/	2.8%	/	/	11
O=C(O)c1cc(Nc2nc(N3CCOCC3)nc(N3CCOCC3)n2)ccc1Cl	-0.9	-1	-0.1%	-4.5	5	21
